TRPV1 PAM = enhances activation of the human vanilloid receptor TRPV1. Q8NER1. TRPV1-expressing cells, Fluo-8 calcium influx, capsaicin EC20 potentiation; host cell line not named in the record; control for the full effect not named in the record. potentiation, % at 8.33 µM. actives 0.02% (n = 320,000); active means potentiation above 80%; inconclusive means 30% to 80%; inactive means below 30%; further: 0% is about no effect
Target sequence (Q8NER1 whole entry, looked up): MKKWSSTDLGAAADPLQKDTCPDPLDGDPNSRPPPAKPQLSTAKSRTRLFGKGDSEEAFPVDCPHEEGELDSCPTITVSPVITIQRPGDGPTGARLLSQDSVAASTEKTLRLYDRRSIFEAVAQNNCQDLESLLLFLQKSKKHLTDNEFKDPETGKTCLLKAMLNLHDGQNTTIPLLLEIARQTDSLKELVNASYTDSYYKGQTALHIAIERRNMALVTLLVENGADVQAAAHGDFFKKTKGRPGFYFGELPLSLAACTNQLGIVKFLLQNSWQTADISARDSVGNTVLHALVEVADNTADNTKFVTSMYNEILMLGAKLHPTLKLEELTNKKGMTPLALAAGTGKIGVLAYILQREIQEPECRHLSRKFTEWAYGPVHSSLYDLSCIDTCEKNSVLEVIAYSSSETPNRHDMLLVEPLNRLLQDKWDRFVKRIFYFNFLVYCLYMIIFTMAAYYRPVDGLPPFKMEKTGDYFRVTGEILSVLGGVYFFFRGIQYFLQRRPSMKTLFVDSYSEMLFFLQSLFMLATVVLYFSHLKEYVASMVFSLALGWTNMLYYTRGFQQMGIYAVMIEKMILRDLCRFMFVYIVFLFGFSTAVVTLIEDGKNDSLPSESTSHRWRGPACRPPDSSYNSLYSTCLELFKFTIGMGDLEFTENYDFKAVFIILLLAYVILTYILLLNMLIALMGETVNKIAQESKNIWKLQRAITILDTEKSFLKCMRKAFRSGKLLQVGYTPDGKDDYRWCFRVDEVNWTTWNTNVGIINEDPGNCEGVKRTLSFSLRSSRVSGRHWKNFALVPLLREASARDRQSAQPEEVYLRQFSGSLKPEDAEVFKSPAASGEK
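Fluo-8 calcium influx in TRPV1-expressing cells, kinetic read (ex 480/em 520 nm). Compound added and read 3 min for agonist activity, followed by capsaicin at EC20 final and 2 min further read for enhancement.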
ClpP mod = qHTS Assay for Activators of ClpP; ATP-dependent Clp protease proteolytic subunit (Bacillus subtilis (strain 168)), P80244; Potency, µM (highest dose often 57.5 µM), for inactives: top-dose activity change, negative = active; AID 651965, 2013; purified B. subtilis ClpP, FRET peptide cleavage, 20 min; actives 1.9% (n = 340,000); active = well fitted falling curve with a large enough effect; inconclusive = small, poorly fitted or top-dose-only effect; inactive = no such curve, though single readings can be large or run the other way; further: potency means the concentration at half of the fitted maximal effect; the source files actives as falling curves though it sought activators and does not explain the sign; nearly all actives have a fitted effect of over 65% in size; many hits overshoot -100%
Target sequence (P80244 whole entry, looked up): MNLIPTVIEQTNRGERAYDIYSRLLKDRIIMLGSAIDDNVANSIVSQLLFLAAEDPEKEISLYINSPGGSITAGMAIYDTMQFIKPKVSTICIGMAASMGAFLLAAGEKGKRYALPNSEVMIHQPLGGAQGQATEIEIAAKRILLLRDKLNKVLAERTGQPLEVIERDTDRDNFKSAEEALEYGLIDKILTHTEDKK
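FRET quenching reversal measured ClpP activation: 10 microg/mL B. subtilis ClpP at pH 8 with the FRET-FV decapeptide, read at 430 nm after 320 nm excitation. The 20-min minus 0-min signal was scaled between DMSO/no-enzyme wells and ADEP (5.8 microM final).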
gsp agonist = activates gsp, the McCune-Albright syndrome mutation. gsp mutant cells, cAMP HTRF, 30 min; control for the full effect not named in the record. Potency, µM (top dose mostly 76.9 µM), for the others: at the highest dose activation (cAMP increase), hits mostly activators. actives 0.13% (n = 340,000). AID 624287; active = well fitted activation curve with a large enough effect; inconclusive = small, poorly fitted or top-dose-only effect, or another doubt; inactive = no such curve, though single readings can be large or run the other way; cell line not stated here;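 further: phosphodiesterase inhibitor Ro 20-1724 added with compounds to block cAMP breakdown; potency means the concentration at half of the fitted maximal effect; nearly all actives have a fitted effect of over 60% in size; about a fifth of the inactives were tested at one dose only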
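Cells stably selected in G418 were plated at 2000/well, grown 16-24 hr, then given compounds in DMSO with the PDE inhibitor […] (300 uM solution added) for 30 min at 37C; cAMP was read by HTRF.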
CtBP-E1A blk = blocks the CtBP interaction with E1A; AlphaScreen GST-E1A/His-CtBP binding, 1536-well; stronger effect = lower value; control for the full effect not named in the record; activity change, % (concentration not given with the values); actives 0.49% (n = 340,000); AID 651724; in the data active means activity change below about -65%; inconclusive means about -30% to -65%; inactive means above about -30%; further: on the % scale 0 is the no-effect control and ±100 the full control effect
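Protein mix (5X: 125 nM each GST-E1A, His-CtBP) was incubated with pinned compound 2 h at 37 deg C in dark, in 50 mM Tris pH 8.0 buffer with 300 mM NaCl. Glutathione donor and nickel acceptor beads followed; AlphaScreen signal read after 1 h.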
gsp antag = antagonizes gsp, the McCune-Albright syndrome mutation. Potency, µM (top dose mostly 76.9 µM), inactives show at the top dose activity change, negative = inhibition, usual class: inhibitors. gsp-mutant cells, cAMP HTRF, 30 min; control for the full effect not named in the record. actives 0.4% (n = 340,000); active = falling curve of any shape with a large fitted effect; inconclusive = falling curve, mostly with a smaller effect; inactive = flat or rising curve; cell line not stated here;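 further: intracellular cAMP measured with PDE inhibitor Ro 20-1724 present during compound exposure; potency means the concentration at half of the fitted maximal effect; on the % scale 0 is the no-effect control and ±100 the full control effect; nearly all actives have a fitted effect of over 65% in size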
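HTRF cAMP measurement after 30 min RT detection following 30 min, 37C compound treatment alongside […] (added as 300 uM solution) in G418-selected cells seeded at 2000/well and grown 16–24 h.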
Menin-MLL FL inh = menin-MLL binding inhibition, fluorescein peptide; Fluorescence polarization, fluorescein-MLL peptide displacement from menin; FP activity change, % at 61.4 µM; 290,000 tested, under 10 active; AID 1766; inconclusive = falling polarisation curve, or a change in total fluorescence; inactive = total fluorescence flat and polarisation flat or rising; no compound was filed as active; the % refers to the polarisation; negative = inhibition;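 further: % of control where 0% means no effect; inhibitors lower the polarisation; unlabelled MLL peptide was the positive control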
Sfp PPTase inh = Sfp phosphopantetheinyl transferase inhibition; Q9F4F7; Biochemical Sfp PPTase activity, qHTS; Potency, µM, inactives show max response, negative = inhibition, hits mostly inhibitors; actives 3.5% (n = 310,000); active means well fitted inhibition curve with a large enough effect; inconclusive means small, poorly fitted or top-dose-only effect, or another doubt; inactive means no such curve, though single readings can be large or run the other way;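 further: the enzyme is Sfp with the accession as filed and its product quenches rhodamine fluorescence; potency means the concentration at half of the fitted maximal effect; 0% = enzyme reaction without inhibitor and -100% = no enzyme wells; top concentration of the series not given in the record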
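Buffer: 50 mM Hepes-Na pH 7.6, 10 mM MgCl2, 0.01% Nonidet P-40, 0.01% BSA. Enzyme 15 nM, pre-exposed to compound 15 min; substrates then added and fluorescence change tracked over 30 min.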
Starred values were filed as active, the others as inactive; ? = inconclusive; . = no result given; & = joins results of further samples; [ ] = dose if it differs, or a comment.

SMILES	TRPV1 PAM	ClpP mod	gsp agonist	CtBP-E1A blk	gsp antag	Menin-MLL FL inh	Sfp PPTase inh
O=C(COC(=O)/C=C/c1ccc(C(F)(F)F)cc1)NCC1CCCO1 (centres undefined)	-8	-0.8%	-32%[inhibitor]	-2	2%	.	.
Cc1cc(C)c2c(=O)[nH]c(SCC(=O)N(C)C)nc2n1	12	0.2%	1%	9	0%	3.5	8%
CCCCNC(=O)NCC(=O)Nc1ccc(F)c(F)c1	-7	0.7%	-5%	8	4%	-2.0	14%
CCn1c(=O)c(=O)[nH]c2cc(C(=O)NC3CC3)ccc21	-7	32µM*	18%	-14	6%	.	12%
COc1cc(C(=O)NCCc2cn3ccccc3n2)cc(OC)c1OC	14	-21%	5%	3	-6%	1.8	12%
CC(=O)c1ccc(S(=O)(=O)NCc2ccc(C(=O)N(C)CC(=O)Nc3cccc(F)c3)cc2)cc1	-21	.	-17%[15.4 µM]	-1	-9%	1.9	8%
CC(=O)NC1C(=O)N=C(SCC(=O)Nc2c(C)cccc2C)NC1=O (centres undefined)	3	.	8%[15.4 µM]	8	3%	-3.7	-29%
CNC(=S)NNC(=O)Cc1ccc(OC)cc1	1	28µM*	-6%[15.4 µM]	-14	5%	1.5	15%
Cc1[nH]c(C)c(S(=O)(=O)N2c3ccccc3CC2C)c1C(=O)N1CCCCC1 (centres undefined)	-3	0.6%	23%	-5	3%	.	7%
CCn1c(SCC(=O)c2ccc(Cl)cc2)nnc1-c1ccoc1C	-20	0.9%	4%	-1	-6%	4.6	-93%
Cn1ncc([N+](=O)[O-])c1C(=O)Nc1ccn(Cc2ccccc2F)n1	22	-1.2%	?	9	-4%	-0.7	11%
O=C(CNC(=O)c1ccco1)OCC(=O)c1ccc(Br)cc1	5	.	-3%	-8	-1%	.	10%
COC(=O)CCC(=O)OC1(C)C(=O)C2=CN(CCc3ccccn3)C(c3ccc(OC)cc3)=CC2=C(Br)C1=O (centres undefined)	.	3.2%	.	-9	-8%	-0.1[11.7 µM]	14%
COc1ccc(NC(=O)CN2CCC(n3c(C)nc4cc(F)ccc43)CC2)c(OC)c1	4	-0.4%	2%	-2	-4%	-1.5	10%
C=CCN1C=C2C(=O)C(C)(OC(=O)c3cnc4ccccc4n3)C(=O)C=C2C=C1/C=C/COC (centres undefined)	.	-2.1%	17%	-3	-6%	-5.7[11.7 µM]	-8%
O=C(CSC1=Nc2ccccc2C2=NC(c3ccccc3)C(=O)N12)NCC1CCCO1 (centres undefined)	-1	18µM*	?	-2	3%	0.4	?
O=C(CC1NCCNC1=O)OCc1ccccc1 (centres undefined)	0	-2.3%	-3%	0	6%	3.7	11%
Fc1cccc(NC(=S)NCCN2CCOCC2)c1	7	-1.1%	3%	0	7%	?	-28%
CCOC(=O)CNC(=O)CSc1nc2cccnc2n1CC	9	0.1%	3%	5	11%	-0.6	-20%
Cc1ccccc1NC(=O)Cc1nc(COC(=O)CNS(=O)(=O)c2cccc(Br)c2)cs1	6	-2.0%	-19%	1	-10%	.	-6%
COC(=O)c1cc(C(=O)OC)cc(N2C(=O)CC(NNC(=O)c3ccc(C)cc3)C2=O)c1 (centres undefined)	?	-3.2%	-21%[15.4 µM]	1	-2%	.	-3%
Cc1[nH]c2c(C)cccc2c1CCNC(=O)c1ccc2c(c1[N+](=O)[O-])C(=O)c1ccccc1C2=O	11	0.1%	-15%	-92*	5%	18	8%
CNC(=S)N(Cc1ccc(OC)cc1)C1CC(=O)N(c2ccc(OC)cc2)C1=O (centres undefined)	-4	-3.4%	?	0	-5%	1.4	11%
Cc1ccc(C(C)NC(=S)NC2CCCCC2)cc1C (centres undefined)	-5	.	.	.	.	3.5	-3%
COCCCn1c(C(=O)NCCC2=CCCCC2)cc2c(=O)n3cccc(C)c3nc21	0	3.9%	7%	2	-14%	1.6	-2%

Brought forward from above: two compounds; new compounds follow.
SMILES	TRPV1 PAM	ClpP mod	gsp agonist	CtBP-E1A blk	gsp antag	Menin-MLL FL inh	Sfp PPTase inh
Cc1ccc(C(C)NC(=S)NC2CCCCC2)cc1C (centres undefined)	-5	.	.	.	.	3.5	-3%
COCCCn1c(C(=O)NCCC2=CCCCC2)cc2c(=O)n3cccc(C)c3nc21	0	3.9%	7%	2	-14%	1.6	-2%
COc1ccccc1N1CCN(C(=O)c2cccc(N3C(=O)NC4CC3(C)Oc3c(OC)cccc34)c2)CC1 (centres undefined)	23	0.3%	8%	.	-7%	.	4%
COC(=O)c1ccc(N2C(=O)C3C4C=CC(CC4)C3C2=O)cc1 (centres undefined)	14	-1.9%	8%[15.4 µM]	-2	7%	-2.4	3%
CCCSC1=C(C#N)C(c2cccs2)C(C(=O)Nc2ccccc2)=C(C)N1 (centres undefined)	3	?	26%	13	-3%	7.9	-3%
O=C(CCN1CCN(C(c2ccccc2)c2ccccc2)CC1)N/N=C/c1ccc(O)cc1	7	-11%	-33%[inhibitor]	-3	-13%	-0.1	6%
O=S(=O)(Nc1ccccc1N1CCOCC1)c1ccccc1C(F)(F)F	.	1.4%	0%	.	-5%	.	.
Nc1ccc(Oc2ccc3c(c2)OCO3)cc1	0	.	7%[15.4 µM]	-8	3%	3.4	19%
Cc1ccccc1NC(=O)CN1CCC(n2nnc3ccccc32)CC1	-9	-4.5%	-28%	-11	6%	1.7	9%
O=C(NCCOc1ccccc1)c1cc([N+](=O)[O-])ccc1N1CCOCC1	-8	1.5%	-20%	5	8%	.	.
COCCNC(=O)Cn1cnc2c(cnn2-c2ccc(OC)cc2)c1=O	9	-2.3%	-12%	.	1%	-0.6	10%
CCN(CC)CCCn1c2c(c(SCC(=O)Nc3cccc(C)c3C)nc1=O)CCC2	-5	-6.3%	3%	-5	1%	.	.
COc1ccccc1NC(=O)CCc1nnc2ccc(N3CCCCC3)nn12	16	-0.8%	24%	4	-7%	.	9%
Cc1ccc(-n2[nH]c(C)c(/C=N/c3cccc(C)n3)c2=O)cc1	1	-1.2%	25%	1	-2%	0.4	10%
CCCN(CC(=O)Nc1ccccc1C)C(=O)CCCOc1ccc(Br)cc1	23	-0.4%	11%	.	?	.	.
O=C(Nc1nnc(-c2cccs2)o1)c1ccc(S(=O)(=O)N2CCOCC2)cc1	5	.	1%[15.4 µM]	-15	5%	0.4	14%
Nc1ncnc2c1ncn2[C@@H]1O[C@H](CO)[C@@H](O)[C@H]1O	5	0.1%	.	7	2%	3.2&54&-0.2	4%&-9%&8%
CC(=O)C1C(c2ccc(Cl)cc2)c2c(n[nH]c2C)CC1(C)O (centres undefined)	13	1.1%	-33%[inhibitor]	0	-5%	-7.1	12%
O=C(CCCC(=O)NC1CCCCC1)Nc1ccc([N+](=O)[O-])cc1	-3	-3.3%	?	.	-1%	-1.5	0%
O=C(Nc1nc(-c2ccccc2)cs1)C1CCCCN1S(=O)(=O)c1ccccc1 (centres undefined)	11	-2.0%	?	-4	2%	3.1	-4%
CC(Nc1cc(C)cc(C)c1)=[N+](C)CCNS(=O)(=O)c1ccc(Cl)cc1	9	-0.9%	18%	-16	10%	-3.6	-6%
Cc1nn(C(=O)CCC(=O)NCCc2ccccc2)c2ccccc12	5	-0.3%	28%	3	10%	.	0%
Cc1c(C(=O)OCC(=O)NCC2CCCO2)cccc1[N+](=O)[O-] (centres undefined)	-12	.	20%[15.4 µM]	5	2%	-6.1	14%
Cc1ccccc1-n1c(SCc2c(C)noc2C)nnc1-c1cccnc1	8	-1.6%	-31%[inhibitor]	-1	-5%	?	?
COc1ccc(CCNC(=O)C2CCN(Cc3nc(-c4ccc(Cl)cc4)oc3C)CC2)cc1OC	.	.	7%[15.4 µM]	-3	3%	.	.
CCOC(=O)COc1c(Br)cc(/C=C2\SC(=O)N(CC(=O)N3CCCC3)C2=O)cc1OC	3	-6.0%	15%	0	?	1.1	0%
N#CC1=C2SCN(Cc3ccco3)CN2C(=O)CC1c1cccc2ccccc12 (centres undefined)	-3	-0.7%	?	-1	?	12	1.4µM*
COc1ccc(Cl)cc1NC(=S)NCCc1ccc(S(N)(=O)=O)cc1	6	.	-12%[15.4 µM]	-4	-8%	0.1	10%
Cc1ccc(/C(O)=C2\C(=O)C(=O)N(c3cc(C)on3)C2c2cccc(Cl)c2)cc1 (centres undefined)	6	-1.2%	26%	7	-5%	0.0	23%
Oc1cccc(C2c3[nH]c4ccccc4c3CCN2Cc2ccc3c(c2)CCO3)c1 (centres undefined)	2	-1.1%	10%[15.4 µM]	-22	-5%	-0.7	10%
CCN(CC(=O)NCC1CCCO1)S(=O)(=O)c1ccc2ccccc2c1 (centres undefined)	27	-9.9%	18%[15.4 µM]	-1	0%	-5.1	1%
COc1c(S(=O)(=O)N2CCN(C(=O)c3ccco3)CC2)ccc(Cl)c1Cl	2	0.3%	26%	-1	-3%	-5.9	11%

Structural class, the entries above containing an NH in an aromatic ring.
SMILES	TRPV1 PAM	ClpP mod	gsp agonist	CtBP-E1A blk	gsp antag	Menin-MLL FL inh	Sfp PPTase inh
Cc1cc(C)c2c(=O)[nH]c(SCC(=O)N(C)C)nc2n1	12	0.2%	1%	9	0%	3.5	8%
CCn1c(=O)c(=O)[nH]c2cc(C(=O)NC3CC3)ccc21	-7	32µM*	18%	-14	6%	.	12%
Cc1[nH]c(C)c(S(=O)(=O)N2c3ccccc3CC2C)c1C(=O)N1CCCCC1 (centres undefined)	-3	0.6%	23%	-5	3%	.	7%
Cc1[nH]c2c(C)cccc2c1CCNC(=O)c1ccc2c(c1[N+](=O)[O-])C(=O)c1ccccc1C2=O	11	0.1%	-15%	-92*	5%	18	8%
Cc1ccc(-n2[nH]c(C)c(/C=N/c3cccc(C)n3)c2=O)cc1	1	-1.2%	25%	1	-2%	0.4	10%
CC(=O)C1C(c2ccc(Cl)cc2)c2c(n[nH]c2C)CC1(C)O (centres undefined)	13	1.1%	-33%[inhibitor]	0	-5%	-7.1	12%
Oc1cccc(C2c3[nH]c4ccccc4c3CCN2Cc2ccc3c(c2)CCO3)c1 (centres undefined)	2	-1.1%	10%[15.4 µM]	-22	-5%	-0.7	10%

Assay outcomes (PubChem)
